Screening data as filed in PubChem.
YopH inh: YopH (Yersinia) phosphatase inhibition; inhibition, %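 (about 10 µM by stock and volumes)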; fluorescence Ex485/Em525; 0.16% of 140,000 active;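 active = inhibition of 50% or more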;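 also: controls were vehicle for no effect and minimum signal wells for full effect; inactives centre near -20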
Arbovirus anti: antivirals against arbovirus infection; arbovirus infection cell-based antiviral screen; inhibition, % at 10 µM; 0.37% of 200,000 active; AID 1251;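 active = inhibition from about 30%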;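 also: bluetongue infection of BSR cells; cell survival read as ATP light after 72 h; 0% = infected wells without compound and 100% = uninfected wells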
Mtb bLac sens: beta-lactam sensitization of Mtb H37Rv; M. tuberculosis H37Rv growth with meropenem, percent inhibition; hits of this screen are not shown here; inhibition, % at 25 µM; 0.27% of 330,000 active;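 active = about 74% or more and at least 40 points above the plate without the antibiotic, then above 30% in a dose series; inconclusive = first-round hits that could not be retested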;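 also: growth measured after seven days incubation then overnight dye step; 0% = bacteria only wells and 100% = bacteria with antibiotic; twin plates without the antibiotic show which effects depend on it; some results filed as inactive read as strong as hits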
Mtb growth: M. tuberculosis H37Rv growth inhibitors, H37Rv strain (AID 1626) | M. tuberculosis H37Rv growth inhibition; higher % means a stronger effect | one-dose inhibition, % at 10 µM; IC50 in µM for titrated hits | 0.95% of 220,000 active;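 active = confirmed in a dose series; inconclusive = inhibition above 80% but not taken into the dose series; inactive = below 80% or under 30% at every dose of the series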;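 also: bacteria incubated seven days before Alamar blue readout; 0% = bacteria only wells and 100% = bacteria with antibiotic wells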
RecA splice inh: inhibitors of M. tuberculosis RecA intein splicing | P9WHJ3 | cell-free RecA intein splicing, fluorescence | inhibition, %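 (about 9 µM by stock and volumes)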 | 0.75% of 290,000 active | AID 2221; in the data active = inhibition above about 30%; inconclusive = no clear call, values can overlap the other calls;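 also: 0% = vehicle wells and 100% = reference inhibitor control wells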
Target sequence (P9WHJ3 whole entry, looked up, canonical isoform): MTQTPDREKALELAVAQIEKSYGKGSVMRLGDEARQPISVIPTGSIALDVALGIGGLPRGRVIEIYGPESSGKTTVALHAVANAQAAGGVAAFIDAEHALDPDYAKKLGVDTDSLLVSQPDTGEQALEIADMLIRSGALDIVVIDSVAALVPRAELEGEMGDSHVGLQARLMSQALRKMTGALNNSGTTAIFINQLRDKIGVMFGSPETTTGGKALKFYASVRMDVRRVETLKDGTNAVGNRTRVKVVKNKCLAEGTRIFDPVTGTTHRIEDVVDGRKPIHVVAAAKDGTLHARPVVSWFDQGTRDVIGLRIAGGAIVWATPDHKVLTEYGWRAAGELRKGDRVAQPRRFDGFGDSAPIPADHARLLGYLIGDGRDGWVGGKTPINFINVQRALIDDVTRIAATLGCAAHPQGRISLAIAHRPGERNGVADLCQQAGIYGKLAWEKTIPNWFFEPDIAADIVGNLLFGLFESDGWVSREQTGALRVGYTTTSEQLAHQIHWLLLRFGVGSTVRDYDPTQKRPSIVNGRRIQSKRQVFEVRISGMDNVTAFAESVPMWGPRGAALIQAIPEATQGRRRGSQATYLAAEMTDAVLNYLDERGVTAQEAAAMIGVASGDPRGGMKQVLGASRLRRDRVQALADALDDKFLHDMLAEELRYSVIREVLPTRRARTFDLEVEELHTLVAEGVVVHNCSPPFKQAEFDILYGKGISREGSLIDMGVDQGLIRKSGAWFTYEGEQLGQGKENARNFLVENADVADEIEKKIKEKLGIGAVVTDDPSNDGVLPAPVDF
Arbovirus anti repeat: further read-out of Arbovirus anti, marked with its call; inhibition, %; measured here: 10K subset replicate screen; many hits read low in the repeat;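 first of two repeat runs on a subset; 0% = infected and 100% = uninfected wells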
An asterisk follows results filed as active; ? = inconclusive; . = no result given. Only part of the results is shown; rates above refer to the full screens.

SMILES	YopH inh	Arbovirus anti	Mtb bLac sens	Mtb growth	RecA splice inh	others
CCc1ccc(O)c(-c2cc(C(=O)Nc3cccnc3)[nH]n2)c1	.	.	5	9%	0.6
CCOC(=O)N1CCN(C(=O)c2ccc(N3C(=O)CCC3=O)cc2)CC1	1	10	-14	-1%	-0.5
COc1cccc(N2CCN(C(=O)Nc3ccccc3Cl)CC2)c1	.	-4	-6	3%	-1.5
O=C(c1ccco1)N1CCCC(N2CCN(c3ccccc3F)CC2)C1 (centres undefined)	.	.	6	.	-1.4
COC(=O)C1=C(C(=O)OC)[C@@H]2N(C)c3ccccc3[C@@]23C[C@@H](C(=O)OC)N(C(=O)c2cc(C)oc2C)C3=N1	.	.	9	-5%	2.5
CCN(Cc1ccccc1)C(c1cccc(C#N)c1)c1nnnn1C(C)(C)C (centres undefined)	-35	-17	-1	5%	3.4
O=C(NNC(=O)C12CC3CC(CC(O)(C3)C1)C2)c1ccccc1O	.	.	-12	.	-2.7
COc1ccc2c(CC(=O)O)cc(=O)oc2c1	.	.	-2	-6%	1.2
CC1CC(C)CN(S(=O)(=O)N2CCCC(C(=O)NC(C)c3ccccc3)C2)C1 (centres undefined)	.	.	1	.	0.2
Cc1ccc(NC2(C#N)C(=O)Nc3ccccc32)cc1C (centres undefined)	.	-4	17	-5%	0.6
O=[N+]([O-])c1ccccc1-c1ccc(C(=S)N2CCN(c3ccccc3)CC2)o1	.	.	-2	-5%	2.6
CC(=O)NC(Nc1nc2c(s1)CCCC2)(C(F)(F)F)C(F)(F)F	-27	-3	0	-8%	-1.1
CN1CCN(Cc2coc3c(Cl)cc(Cl)cc3c2=O)CC1	.	.	2	.	-9.2
Cc1ccc(NC(=O)c2cccc(NC3=NC4CS(=O)(=O)CC4S3)c2)cc1 (centres undefined)	.	.	-1	.	-1.6
COc1ccc(C(=O)C2CCCN(Cc3sc(N4CCCC4)nc3Cl)C2)c(OC)c1 (centres undefined)	.	5	-1	-1%	-2.3
COc1ccc(C2(C(=O)Nc3ccc(C)cc3)CCOCC2)cc1	.	1	-1	-1%	-3.6
CCOC(=O)CSc1nc2sc3c(c2c(=O)n1-c1ccccc1)CCN(C)C3	.	.	0	.	23
CCOC(=O)N1CCN(C(=O)COc2ccc3oc4c(c3c2)CCCC4)CC1	.	.	3	.	2.5
C=CCN1/C(=C2/SC(=S)N(C)C2=O)Sc2ccccc21	.	.	2	.	0.1
CC1Sc2ccc(S(=O)(=O)NCCc3ccccc3)cc2NC1=O (centres undefined)	.	.	-5	.	0.5
COc1ccccc1CCC(=O)N(C)CC(=O)Nc1ccc(F)cc1	.	.	2	.	0.8
CCOc1ccc2nc(NC(=O)CSc3nc4c(c(=O)n(C)c(=O)n4C)n3CC)sc2c1	.	.	51	11%	1.5
Cc1cc(C)n(C(=O)CNC(=O)c2ccc(C(C)(C)C)cc2)n1	.	.	2	.	4.0
Cc1nnc(N)nc1C	-30	-3	8	-13%	-0.4
COc1ccc(-c2csc(N3CCOCC3)n2)cc1OC	-9	-3	0	2%	2.9
O=C(Nc1ccc(Cl)cc1)Nc1ccc(S(=O)(=O)Nc2ncccn2)cc1	.	0	-3	-5%	-0.4
COC(=O)c1ccc(Cn2c(O)c(N=NC(N)=S)c3ccccc32)o1	.	.	-15	-3%	2.3
O=C(Nc1nc(-c2cccnc2)cs1)c1ccccc1F	.	-5	-1	2%	-1.0
Cc1ccc2nc(SCC(=O)Nc3cccc4ccccc34)nc(=O)n2c1	.	.	-3	.	1.6
Cc1ccc(OCCn2ccc(=O)[nH]c2=O)cc1C	-20	3	7	5%	-2.5
CCN(CC)CCN1C(=O)C(O)=C(C(=O)c2cc3ccccc3o2)C1c1cccnc1 (centres undefined)	-37	8	14	-2%	5.0
C=CCNC(=S)N/N=C(\C)c1cc(OC)c(OC)c(OC)c1	7	-11	89	0%	0.0
CCOc1ccc(-c2nnc(-c3ccc(OC)cc3)o2)cc1	0	-9	.	3%	5.0
O=C(CCCSc1ccccc1)Nc1cccc(CO)c1	.	.	-2	.	-0.4
COc1cc(/C=N/NC(=O)c2ccc(NC(=O)C3CCCCC3)cc2)ccc1O	.	.	5	.	0.9
O=C(Nc1ccc(Cl)c(Cl)c1)c1cccnc1	.	.	2	.	2.0
Cc1cc(C)cc(OCC(=O)N2N=C(C(F)(F)F)CC2(O)C(C)(C)C)c1 (centres undefined)	-35	6	-9	8%	0.1
CCOC(=O)/C(C#N)=C\c1cc(OC)c(OC)cc1[N+](=O)[O-]	.	-8	-4	-7%	-4.8
O=C(C1CCN(Cc2ccccc2O)CC1)N1CCN(Cc2ccc3c(c2)OCO3)CC1	.	.	-12	.	-2.6
O=C(NCCCO)/C(=C/c1ccc(-c2cccc([N+](=O)[O-])c2)o1)NC(=O)c1ccccc1	.	-3	2	0%	0.1
CCOc1ccc(CC(=NCCc2ccccc2)C2=C(O)CC(C)(C)CC2=O)cc1OCC	-5	-3	-2	6%	3.8
S=C1NCN(Cc2ccccc2)CN1C1CCCCC1	.	-3	-3	0%	1.5
CCCN(CCC)c1nc(NC2CCN(C(=O)OCC)CC2)nc(OC)n1	-11	-33	9	10%	1.3
Cn1c(=S)c2[nH]c(SCCN3CCCC3)nc2n(C)c1=O	.	.	99	.	-1.3
COc1cccc(C2CC(=O)Nc3c2c(=O)[nH]c2ncnn32)c1 (centres undefined)	.	3	-8	3%	-7.4
O=C1OCCC1Sc1nnc(-c2ccco2)n1-c1ccccc1 (centres undefined)	.	2	-2	-9%	-1.7
COc1ccc(C(c2sc3nc(C)nn3c2O)N2CCC3(CC2)OCCO3)cc1 (centres undefined)	10	2	-7	-7%	1.2
CC(=O)c1ccc(NC(=S)Nc2ccc3cn[nH]c3c2)cc1	.	1	3	7%	11
COCCn1c(SCC(=O)Nc2ccccc2F)nnc1-c1ccoc1C	.	.	-3	.	-2.6
CC(=O)c1cccc(S(=O)(=O)NCC(c2ccco2)N2CCCCC2)c1 (centres undefined)	5	2	1	-6%	1.6
O=C(O)Cc1cnc[nH]1	.	.	-2	-3%	-2.7
CC(C)Oc1ccc(CCN=C(N)N=C(N)N)cc1Cl	.	-1	2	-2%	-1.9
O=C(COC(=O)c1cc(=O)c2ccccc2o1)NCC1CCCCC1	.	9	4	3%	-0.7
CCN1CCN(c2ccc(S(=O)(=O)N3CCOCC3)cc2NC(=O)/C=C/c2ccc([N+](=O)[O-])cc2)CC1	.	.	-10	.	0.0
COc1ccc(OC)c(C2NC(=O)NC(C)=C2C(=O)OCc2ccccc2)c1 (centres undefined)	.	.	-1	.	-2.7
CC1CCCC(C)N1C(=O)COC(=O)c1ccc[nH]c1=O (centres undefined)	-121	-2	-6	-1%	7.0
COc1ccccc1NC1=NC(C)(C)N=C(N)N1	-7	0	2	-4%	-3.5
Cc1cccc(C(=O)N2CCC(=O)N(C(COCc3ccc(Cl)cc3)Cc3ccccc3)CC2)c1 (centres undefined)	-6	-24	11	-2%	13
CCOc1cc(C(=O)Nc2ccc(S(=O)(=O)NC3=NCCCCC3)cc2)cc(OCC)c1OCC	.	-2	-2	4%	0.8
O=C1c2ccccc2C(=O)N1/N=C/c1ccc(Oc2ccc([N+](=O)[O-])cn2)cc1	.	-1	6	-3%	0.4

Next section
SMILES	YopH inh	Arbovirus anti	Mtb bLac sens	Mtb growth	RecA splice inh	others
CCCC(=O)O[C@]1(C(=O)CO)CC[C@H]2[C@@H]3CCC4=CC(=O)CC[C@]4(C)[C@H]3[C@@H](O)C[C@@]21C	-9	20	-4	11%	-1.2
CC(=O)c1ccc(N=C2C(=O)Nc3ccccc32)cc1	.	.	3	.	0.3
O=C(c1cccc(S(=O)(=O)N2CCN(c3ccccc3)CC2)c1)N1CC=C(c2ccccc2)CC1	.	.	-5	.	-5.7
O=C(C1=C[C@@H](c2csc3ccccc23)C[C@@H](OCCCCO)O1)N1CCN(Cc2ccc3c(c2)OCO3)CC1	.	-17	95	11%	-0.9
COc1ccc(C)cc1NC(=O)NCc1ccco1	.	-5	-4	-2%	.
C/C(=N\Nc1nc2ccccc2c(=O)n1O)c1ccco1	.	.	-3	.	-5.9
CCCCC(C)C(OC(=O)CC(CC(=O)O)C(=O)O)C(CC(C)CC(O)CCCCC(O)CC(O)C(C)N)OC(=O)CC(CC(=O)O)C(=O)O (centres undefined)	-11	-14	-1	-7%	.
CCN(C1CCCCC1)S(=O)(=O)c1ccc(S(=O)(=O)N2CCN(CCC#N)CC2)cc1	-12	-6	-8	-10%	2.8	Arbovirus anti repeat=3
O=S(=O)(c1cccc(-c2n[nH]c(=S)n2C2CCCC2)c1)N1CCOCC1	.	3	-4	1%	-2.0
CC(=O)NC(=S)Nc1ccc2oc(-c3cc(F)c(F)cc3Cl)nc2c1	.	-7	2	6%	2.4
C[n+]1ccccc1/C=C/c1c(F)cccc1F	.	.	-3	.	1.8
COc1ccc(S(=O)(=O)N2CCOCC2)cc1NC(=O)COc1ncnc2ccccc12	-11	6	-5	0%	0.8
Cc1cc(C)n(-c2ccc(C(F)(F)F)cc2[N+](=O)[O-])n1	.	4	-7	.	0.3
COc1cc(C(=O)NN(CCC#N)C2=NS(=O)(=O)c3ccccc32)cc(OC)c1OC	.	.	-3	.	-0.6
Cc1ccc(NC(=O)c2nc[nH]c2C(=O)N[C@@H](CCCCNC(=O)OC(C)(C)C)C(=O)OC(C)(C)C)cc1	.	.	-8	41%	2.9
CCCn1c(N)c(N(CCOC)C(=O)c2ccc(Cl)c([N+](=O)[O-])c2)c(=O)[nH]c1=O	.	.	2	.	4.2
CN(C)CCCN1C(=O)c2cccc3c([N+](=O)[O-])ccc(c23)C1=O	-3	-38	36	?	.
COc1ccc(N(CC(=O)NC2CCCC2)C(=O)c2ccc(C)s2)c(OC)c1	.	.	-3	.	0.6
COCCNC(=S)c1ccc(OC)cc1	12	-1	3	-2%	.
CCC(C)NC(=O)[C@H](CSCc1ccccc1)N1Cc2ccccc2C1=O (some centres undefined)	-27	-9	-1	.	.
COc1cc(/C=C(\C#N)C(=O)Nc2ccc(SC(F)F)cc2)cc(OC)c1OC	-21	11	8	2%	0.9
O=C(NNC(=O)c1ccccc1[N+](=O)[O-])c1cccs1	.	5	-10	0%	-2.9
Cc1[nH]c2ccccc2c1N=Nc1cc(C(=O)O)cc(C(=O)O)c1	.	4	-6	1%	2.9
COc1ccccc1CN1CCNC(=O)C1CC(=O)NCc1cn(C)nc1C (centres undefined)	.	5	-3	-5%	0.6
O=C(c1csc2c1CCCC2)N1CCN(c2ccc(F)cc2)CC1	-5	-1	-1	2%	7.7
CCCSc1nnc(NC(=O)Nc2ccccc2OC)s1	.	.	6	2%	-0.6
COCCNC(=O)c1cc(C)ccc1C	.	-4	-3	7%	-2.0
COC(=O)c1cccc(OCC(O)Cn2ccnc2)c1 (centres undefined)	-21	0	-5	0%	0.5
O=C(NCCNc1ccccc1[N+](=O)[O-])c1ccccc1F	.	.	0	.	0.8
Cc1cccc2sc(NC(=O)CSc3nc4ccccc4o3)nc12	-13	8	1	-3%	0.5
COc1cc2c(cc1OC)[C@@H]1Cc3cc4c(cc3[C@H](C2)N1C)OCO4	-14	-2	-1	-17%	-2.5
C1CNC2NCCNC2N1 (centres undefined)	-41	12	.	-5%	2.1
COc1ccc(CC(=O)Oc2ccccc2C)cc1	.	.	8	.	2.7
CC(C)(C)C(=O)NC(=C(Cl)Cl)P(=O)(O)O	-8	10	7	0%	.
Cc1ccc(-c2nnc(-c3ccc(NC(=O)c4ccco4)cc3)o2)cc1	29	-6	1	6%	3.0
COc1ccc(C(=O)COC(=O)c2cc(S(=O)(=O)N3CCCCC3)ccc2N2CCOCC2)c(OC)c1	.	.	0	.	0.8
